# HSD17B inh: HSD17B dehydrogenase inhibition; Q99714; recombinant HSD17B10, NADH fluorescence kinetic; many of its hits are not listed in these tables; Potency, µM (series often up to 57.1 µM), inactives show top-dose activity change, negative = inhibition, hits mostly inhibitors; hit rate 7.6% among 75,000; AID 893; active means well fitted inhibition curve with a large enough effect; inconclusive means small, poorly fitted or top-dose-only effect; inactive means no such curve, though single readings can be large or run the other way;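 further: the protocol describes HADH2 (HSD17B10) and not the HSD17B4 of the title; nearly all actives have a fitted effect of over 70% in size; most hits overshoot -100% by far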
#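 His-tagged E. coli-expressed HADH2 at 20 nM in 100 mM Tris-HCl pH 9.0 with 0.01 % Tween-20, preincubated 15 min with compound at room temperature. Reaction with 1 mM NAD+ and 90 uM beta-hydroxybutyryl coenzyme A; NADH fluorescence (360/450 nm) read kinetically over 4 min, last minus first point.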
# Active calls of the source: *; u = inconclusive; [ ] = another dose, or the depositor's remark. On the % scale 0 is the no-effect control and ±100 the full control effect; potency means the concentration at half of the fitted maximal effect.
SMILES,HSD17B inh
CC(C)(C)N(Cc1cc2ccccc2[nH]c1=O)C(=O)C1CCCCC1,-6.0%
CCC(NC(=O)NCc1ccc2c(c1)OCO2)(C(F)(F)F)C(F)(F)F,1.2%
O=C(O)CCn1nnc(-c2cccs2)n1,-5.8%
c1ccc(-c2cc(-c3nc(-c4ccccn4)no3)c3ccccc3n2)cc1,u
CN1CCN(C(c2cccnc2)c2ccc3cccnc3c2O)CC1 (centres undefined),-0.7%
O=C(CN(C1CCCCC1)S(=O)(=O)c1ccccc1)NCc1cccnc1,6.1%
CO[C@H]1COC(=O)[C@H]2CCCN2C(=O)C/C=C\[C@@H](C)[C@H](OC)COC(=O)[C@@H](OCc2ccccc2)/C=C\[C@@H]1C,2.4%[11.4 µM]
CCOC(=O)C1CCCN(Cc2ccccc2C)C1 (centres undefined),1.4%
O=c1c2ccccc2nc(SCc2nnc(-c3ccccc3Br)o2)n1-c1ccccc1,3.2%
CN(C)CCN1C(=O)C(=O)/C(=C(/O)c2ccccc2)C1c1ccccc1F (centres undefined),2.8%
CCC/C=C(\CCC)C(NC(=O)Oc1ccc(F)cc1)c1ccc(C(=O)OC)cc1 (centres undefined),-8.8%
Cc1ccc(S(=O)(=O)N2CCN(C(=O)CSc3nc4ccccc4c(=O)[nH]3)CC2)cc1,-8.9%
CCOC(=O)c1sc(-c2ccc(OC)cc2)cc1N,u
CC(=O)N1CCc2cc(S(=O)(=O)NCCC(=O)NC3CCN(Cc4ccccc4)CC3)ccc21,3.3%
COc1ccc(CNC(=O)c2ccc(CN3CCOCC3)cc2)cc1,1.7%
O=S(=O)(c1ccc(-c2ccccc2)cc1)N1CCOCC1,2.4%
CC1(C)C2CC=C(/C=N/n3cnnc3)C1C2 (centres undefined),-3.7%
c1ccc(-c2nc(C3CCCCC3)no2)cc1,0.5%
C=CCOC(=O)C1C(=O)CC(C)(O)C(C(=O)OCC=C)C1c1ccc(OCC)cc1 (centres undefined),14.0%
Cc1oc2c(c1C(=O)NCc1cc(C(=O)O)co1)CCCC2,-7.0%
CC[N+](CC)(CCNC(=O)C(=O)NCC[N+](CC)(CC)Cc1ccccc1Cl)Cc1ccccc1Cl,8.1%
CCn1c(SCC(=O)Nc2nnc(C)s2)nnc1-c1ccco1,-13.1%
NCc1ccccc1CC(=O)N[C@@H]1C(=O)N2C(C(=O)O)=C(CSc3nnnn3CC(=O)O)CS[C@@H]12,u
CCN1CCCC(OC(=O)C(c2ccccc2)c2ccccc2)C1 (centres undefined),1.4%
Nc1nc2ccc(Oc3ccccc3)cc2s1,3.9%
CCOC(=O)N1CCC(NS(=O)(=O)c2ccc3c(c2)CCN3C(C)=O)CC1,-0.4%
CCN(C(=O)C1CCCCC1)c1nnc(-c2cccnc2)s1,-4.2%
Cn1c(=O)c(-c2ccc(F)cc2)nc2cnc(Oc3ccccc3)nc21,u
Cn1c(C(=O)N2CCCc3ccccc32)cc2sccc21,-8.5%
CC(=O)NC(C)C(=O)OCC(=O)c1ccc(Cl)s1 (centres undefined),-14.8%
COCCCNC(=O)C1CC(=O)N(Cc2ccc(OC)cc2)C1 (centres undefined),-0.8%
Cc1cnc(C(=O)OCC(=O)NC2CCCCC2)cn1,-0.1%
Cc1nccn1-c1ccc(C(F)(F)F)cc1NC=O,10.4%
O=C(NC1CCN(Cc2ccccc2)CC1)C1COc2ccccc2O1 (centres undefined),-7.4%
COc1cccc(C(=O)NCc2cccnc2)c1,9.7%
Cc1cc(Cl)ccc1OCc1nc(-c2ccc(O)cc2)n[nH]1,-4.0%
COc1ccc(CNc2nc(-c3ccoc3)nc3ccccc23)c(OC)c1,-23.5%
O=C(CN1C(=O)CCSc2ccccc21)Nc1ccc2c(c1)OCO2,-7.7%
Cc1ccc(S(=O)(=O)CC2CSc3nnc(C)c(=O)n32)cc1 (centres undefined),-4.6%
COCCNC(=O)CN(C(=O)CCC(=O)Nc1ccccn1)c1ccc(F)cc1,8.8%
O=C1CC(N2CCN(c3nc4ccccc4s3)CC2)C(=O)N1c1ccc(F)cc1 (centres undefined),1.2%
CCCCn1cnc2c1c(=O)n(C)c(=O)n2C,8.5%
O=C(CSC1=Nc2ccccc2C2=NC(CC(=O)NCc3ccco3)C(=O)N12)NCC1CCCO1 (centres undefined),31.6µM*
COc1ccc(NCC(=O)Nc2ccc(Cl)cc2C)c(OC)c1,-0.8%
CC(C)c1ccc(NC(=O)NC2CCCCC2)cc1,-7.4%
Cc1ccc(C(=O)NCC(=O)OCC(=O)c2c(N)n(C)c(=O)n(C)c2=O)s1,-2.3%
CCCCn1nnnc1NCc1ccc(N2CCCC2)cc1,u
COc1ccc(C)cc1NC(=O)CSc1nnc(-c2ccc(OC)c(OC)c2)n1N,4.5%
CCc1nnc(SCc2ccc(OC)c(Br)c2)n1N,5.7%
CCC1=C(OC(=O)N(CC)CC)N2C(=O)OC(=NCCc3c[nH]c4ccccc34)[C@]2(Cc2ccccc2)[C@H]2C1=CC[C@H]1C(=O)N(CC(=O)OC)C(=O)[C@H]12,12.8%

# (next part)
SMILES,HSD17B inh
O=c1cc(CN2CCN(Cc3ccccc3)CC2)c2cc(Cl)ccc2o1,-5.6%
COCC(C)N=CC1=C(O)CC(C)(C)CC1=O (centres undefined),1.6%
O=S(=O)(c1ccccc1)N1CCC2(CC1)CN(c1ccccc1)C2,-11.5%
CCc1c2c(nc3cccc(OC)c13)OC(CC)C2 (centres undefined),31.6µM*
O/N=C1/CC/C(=N\O)c2nn(-c3ccccc3)nc21,1.5%
COc1ccc(N2C(=O)CC(N3CCN(S(=O)(=O)c4c(F)cccc4F)CC3)C2=O)cc1OC (centres undefined),-4.4%
CCOc1cc(C)c(S(=O)(=O)Nc2ccc(Cl)cn2)cc1C,3.7%
O=C1C(C2=C(O)c3ccccc3C2=O)=Nc2ccccc21,-29.6%
O=C(O)CSc1n[nH]c(=O)[nH]c1=O,-3.4%[11.4 µM]
CCCC(=O)Nc1c2c(nn1-c1ccc(OC)cc1)CS(=O)C2 (centres undefined),-2.0%
COc1ccc(C2CC(=O)N3CN(c4ccc(C)c(Cl)c4)CSC3=C2C#N)cc1OC (centres undefined),12.6µM*
CN1C(=O)C(Cc2c[nH]c3ccccc23)NC1=S (centres undefined),-20.3%
CCN(C(=O)c1sc(N)c(C#N)c1C)C1CCCCC1,-1.6%
CSc1ncccc1C(=O)OCc1ccccc1,-0.2%
O=C(O)c1ccc(CSCc2c(F)cccc2Cl)o1,-2.6%
COc1ccc(-c2cn3cc(Cl)ccc3n2)cc1OC,25.1µM*
COc1ccc(C(=O)N2CCC3(CCCN(c4ccncc4)C3)CC2)cc1,6.7%
CCOC(=O)CCc1c(C)nc2cc(C3CCCN(C(=O)OC(C)(C)C)C3)[nH]n2c1=O (centres undefined),u
CC(C)[C@H](Nc1ncnc2nc[nH]c12)C(=O)O,4.4%[11.4 µM]
CCCS(=O)(=O)N1CCCC(C(=O)NCCCOCC)C1 (centres undefined),10.6%
CCOC(=O)Cc1c[nH]c2ccccc12,-11.9%
CCOc1ccc(N2C(=O)CC(Sc3nc(C)cc(C)n3)C2=O)cc1 (centres undefined),-10.4%
COc1ccc(CC(=O)N2CCN(C(=O)Cc3ccc(OC)cc3)CC2)cc1,-4.1%
C=CC(C1=CC(=O)C(OC)=C(OC)C1=O)c1ccccc1 (centres undefined),u
NC(=O)CSCc1cccc(Br)c1,-3.0%
CCCOC(=O)C1=C(C)NC2=C(C(=O)CCC2)C1c1ccc(N(C)C)cc1 (centres undefined),2.1%
CCC(=O)Nc1cc(-c2nn3c(C)nnc3s2)ccc1C,1.8%
CCn1nnc(-c2ccccc2NC(=O)c2ccc(-n3cnnn3)cc2)n1,u
N#CCCN(C(=O)CN1C(=O)NC2(CCCC2)C1=O)c1ccccc1F,11.5%
Cc1cc(C(=O)NCc2ccc(S(N)(=O)=O)cc2)cs1,0.4%

# Of the compounds above, 9 have an NH in an aromatic ring.
SMILES,HSD17B inh
CC(C)(C)N(Cc1cc2ccccc2[nH]c1=O)C(=O)C1CCCCC1,-6.0%
Cc1ccc(S(=O)(=O)N2CCN(C(=O)CSc3nc4ccccc4c(=O)[nH]3)CC2)cc1,-8.9%
Cc1cc(Cl)ccc1OCc1nc(-c2ccc(O)cc2)n[nH]1,-4.0%
CCC1=C(OC(=O)N(CC)CC)N2C(=O)OC(=NCCc3c[nH]c4ccccc34)[C@]2(Cc2ccccc2)[C@H]2C1=CC[C@H]1C(=O)N(CC(=O)OC)C(=O)[C@H]12,12.8%
O=C(O)CSc1n[nH]c(=O)[nH]c1=O,-3.4%[11.4 µM]
CN1C(=O)C(Cc2c[nH]c3ccccc23)NC1=S (centres undefined),-20.3%
CCOC(=O)CCc1c(C)nc2cc(C3CCCN(C(=O)OC(C)(C)C)C3)[nH]n2c1=O (centres undefined),u
CC(C)[C@H](Nc1ncnc2nc[nH]c12)C(=O)O,4.4%[11.4 µM]
CCOC(=O)Cc1c[nH]c2ccccc12,-11.9%

# Remaining list, next part
SMILES,HSD17B inh
COC(=O)c1ccc(C2/C(=C(/O)c3ccc(OC)cc3)C(=O)C(=O)N2CC2CCCO2)cc1 (centres undefined),4.7%
COC(=O)c1ccccc1NC(=O)n1cc(C)cn1,31.6µM*
CCCc1cc(=O)n2c(nc3ccccc32)[nH]1,25.1µM*
CC1=C(C(N)=O)C(c2ccccn2)n2nc(SCc3ccccc3Cl)nc2N1 (centres undefined),u
CCC(=O)n1nc(-c2ccc(OC)cc2)nc1N,76.4%[activator]
CCOc1ccc(-c2nnn(CC(=O)Nc3cc(OC)ccc3OC)n2)cc1OCC,3.3%
COc1cc(-c2c(C#N)c(N)nc3c2CCCC3)cc(OC)c1OC,u
C/C=C/OC(=O)NC(c1ccccc1)[C@]1(C(C)=O)CCCC1=O (some centres undefined),-4.2%[11.4 µM]
COCCn1nnnc1C(c1cc2ccc(OC)cc2[nH]c1=O)N1CCc2ccccc2C1 (centres undefined),-12.0%
CC1CCCC(NC(=O)c2ccc3c(c2)N(Cc2ccccc2)C(=O)CS3=O)C1C (centres undefined),-26.1%
CCC1=C2CC[C@H]3C(=O)NC(=O)[C@H]3[C@H]2[C@@]2(C)C(=NCC3CC3)OC(=O)N2C1=O,-13.2%
Cc1ccc(S(=O)(=O)N=C2SCCCS2)cc1,-3.1%
COc1ccc(OC)c(NC(=O)CS(=O)(=O)Cc2nc(-c3ccccc3C)oc2C)c1,-6.8%
COc1ccc(C2C(C#N)=C(/N=C/N3CCN(C)CC3)OC3=C2C(=O)CC(C)(C)C3)cc1OC (centres undefined),-4.5%
CC1CCN(C(=O)CSc2nc3c(cnn3-c3ccc(Cl)cc3)c(=O)[nH]2)CC1,-29.3%
COc1ccc(C(=O)c2coc3ccc(O)c(CN4CCCCC4)c23)cc1,-6.2%
COc1cccc(C2=NOC(C(=O)Nc3cccnc3)C2)c1 (centres undefined),-5.2%
O=C(COn1nnc2ccc(C(F)(F)F)cc21)Nc1nnc(-c2ccccc2)o1,15.8%
Cc1occc1C(=O)Nc1cc(C(F)(F)F)ccc1Cl,-21.1%
C=CCC(O)(CCN1CCCCC1)c1ccccc1 (centres undefined),5.8%
O=C(O)c1ccc(COc2ccc(Cl)cc2)o1,u
CCOC(=O)c1nn(-c2ccccc2)c(C#N)c1NC(=O)c1nn(CC)cc1Br,25.1µM*
CN1CCC2(CC1)NC(=O)NC2=O,2.6%
Cc1onc(-c2c(F)cccc2Cl)c1C(=O)N1CCCc2ccccc21,-3.5%
COc1ccc(S(=O)(=O)N(CC(=O)NCc2ccco2)c2ccccc2)cc1OC,12.2%
COc1ccc(-c2cc(C(=O)Nc3c(C)nn(Cc4ccc(Cl)cc4)c3C)no2)cc1,-6.1%
CC(=O)N(CC(C)(C)CC=C(C)C)c1ccccc1,5.5%
CO,3.1%
CNc1nc(C)nc(-n2nc(C)cc2C)n1,0.5%
CCCCC(=O)Nc1cccc(NC(=O)c2ccc(Br)o2)c1,-23.1%
CCOC(=O)C1(C)NC(c2cc(OC)c(OC)c(OC)c2)C2C(=O)N(CC)C(=O)C21 (centres undefined),11.0%
CCN1CCCC1CNS(=O)(=O)c1cc(Br)cc2c1N(C(=O)C1CC1)CC2 (centres undefined),1.5%
Cc1ccc(C(=O)Nc2cccc(C(=O)O)c2)cc1S(=O)(=O)N1CCCCC1,-5.1%
CCOC(=O)C1=C(c2ccccc2)Nc2ncnn2C1c1cc(OC)cc(OC)c1OC (centres undefined),-2.1%
CSc1ccc(S(=O)(=O)Nc2ccc(NC(C)=O)cc2)cc1,9.3%
CCOC(=O)Cc1nn(C)c(=O)c2ccccc12,0.2%
CCCn1c(=O)c2ccccc2n2c(SCc3nc4ccccc4s3)nnc12,25.1µM*
CCCOc1ccc(-c2nnn(CC(=O)Nc3cccc(C(=O)OC)c3)n2)cc1,9.8%
CCN1C(=O)c2ccccc2S(=O)c2ccc(C(=O)N3CCN(C(=O)c4ccco4)CC3)cc21 (centres undefined),0.5%
Cc1ccc(N2CC(C)Cn3c2nc2c3c(=O)n(CC(=O)OCc3ccccc3)c(=O)n2C)cc1C (centres undefined),u
COC(=O)c1ccc(NC(=O)Cc2ccccc2)cc1,-3.0%
O=S(=O)(NCCCCCCc1ccccc1)c1cccc2c(Cl)cccc12,-16.0%
COC(=O)N/N=C/C1=C[N+](=O)c2ccccc2[N+]1=O,-2.3%
CCOc1ccc(N2CC(C(=O)Nc3ccc(F)cc3F)CC2=O)cc1 (centres undefined),13.7%
Cc1cc(C(=O)CSc2nnc(-c3ccco3)o2)c(C)n1-c1ccc2c(c1)OCCO2,-4.6%
CCOC(=O)c1ccccc1NC(=O)c1ccccc1NS(C)(=O)=O,-15.6%
COCCN1C(=O)c2oc3ccccc3c(=O)c2C1c1ccc(OC)c(OC)c1 (centres undefined),-3.6%
COCCNc1ncnc2ccc(-c3ccoc3)cc12,31.6µM*
COc1cc2c(=O)n(CC3CCCO3)c(=O)n(CC(=O)Nc3cccc(Cl)c3)c2cc1OC (centres undefined),25.1µM*
OC(COc1ccc2ccccc2c1)CN1CCCC1 (centres undefined),4.7%

# Compound activity (PubChem BioAssay)

# A portion of the library; the hit share may differ from the screen's.
